Compound activity from PubChem.
Beta apoptosis: blocks beta cell apoptosis; protection from apoptosis, % (no concentration beside the values); hit rate 0.8% among 300,000; INS-1E cytokine-induced death, ATP luminescence, 48 h; percent of positive-control rescue, neutral wells zero;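 active means all replicates at 75% or more, or half of them and the mean; inconclusive means half reach 75% but not the mean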;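 further: 0% = cytokine-treated negative control wells and 100% = positive control rescue; higher means more ATP so stronger rescue from cytokine killing; wells of about 40 µL received 100 nL stock; the first replicate is given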
T cruzi repl: T. cruzi replication inhibition; T. cruzi beta-gal in NIH3T3, luminescence, 90 h; inhibition, % (no concentration beside the values); hit rate 1.4% among 300,000;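 active means mean inhibition across valid replicates above about 55%, limit read from the data; inconclusive means mean below that limit but half or more replicates reach it; inactive means mean below it, under half of replicates reach it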;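 further: signal also drops with host cell toxicity which is not excluded here; 0% = plate median of DMSO wells and 100% = zero luminescence signal; higher percent means less beta-gal luminescence so fewer parasites; stock transfer was 50 nL into about 50 µL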
Vif A3G: inhibitors of Vif binding to APOBEC3G peptide, primary screen, biochemical, TR-FRET, GST-Vif 1-94, biotin-A3G peptide, dose response retest (AID 1117319) | hit rate 0.57% among 260,000 | TR-FRET GST-Vif / biotin-A3G peptide binding; higher % means a stronger effect; test concentration not given here; strong numbers were not always called active | one-dose inhibition, %; IC50 in µM for titrated hits;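 active means above the screen mean plus three standard deviations and confirmed in dose response; inconclusive means results disagree or hit not tested in dose response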;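 further: Vif residues 1-94 fused to GST binding biotinylated APOBEC3G peptide 110-148; 0% = full assay without inhibitor and 100% = GST in place of GST-Vif; retest series ran down from 100 µM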
Calb FLC: affects C. albicans growth with fluconazole; hit rate 0.57% among 300,000; growth inhibition, % (concentration not given with the values); AID 1979; C. albicans CaCi-2 (fluconazole-resistant clinical isolate) + fluconazole, Alamar Blue growth, 48 h;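 active means most replicates above 75%; inconclusive means exactly half above 75%; inactive means most below 75%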;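 further: all wells also contain fluconazole at 8 µg/ml as a sub-toxic cotreatment; 0% = median of DMSO wells and 100% = median of geldanamycin control wells; wells of about 8 µL received 7.5 nL stock; the first replicate is given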
MLL AF4-AF9 inh: blocks AF4 peptide binding to human AF9 | AID 651704 | hit rate 0.47% among 350,000 | AlphaScreen, biotin-AF4 peptide binding to FLAG-AF9 | P42568 | inhibition, % at 10 µM;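 active means every replicate reaching a set inhibition limit, whatever the replicate mean, cut at about 25% in these data; inconclusive means mean inhibition reaches that limit but some replicates miss it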;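 further: 0% = plate neutral control median and 100% = total signal loss; the record names both 10 and 1 µM as test concentration; the first replicate is given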
Bfl-1 A1 inh: inhibitors of the anti-apoptotic protein A1, read as caspase activation; AID 2462; caspase activation, % (concentration not given with the values); hit rate 0.066% among 330,000; MEF A1-2A-BIM cells, Caspase-Glo 3/7 luminescence, 3 h; percent of clofoctol response, vehicle zero;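 active means over half of replicate activation scores above 10%, or exactly half above 10 with the replicate mean above 10; inconclusive means replicate mean below 10 yet half the replicates above 10; inactive means over half of replicates below 10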;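 further: wells of about 30 µL received 50 nL stock; many hits fall short of the cut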
RanGTP-Impb inh: disruptors of Ran-importin-beta complex formation – biochemical, FRET, CFP-Ran, YFP-importin-beta, homogeneous, primary screen; cell-free CFP-Ran/YFP-importin-beta FRET ratio; inhibition, % (test concentration not listed); hit rate 1.1% among 300,000;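 active means most replicates above 15%; inconclusive means exactly half above 15%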;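 further: 0% = DMSO wells and 100% = Ran loaded with GDP instead of GTP; wells of about 40 µL received 100 nL stock; the first replicate is given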
LANA-H2B inh: blocks KSHV LANA binding to histone H2A/H2B; cell-free LANA-H2A/H2B peptide, fluorescence polarization; inhibition, % (no concentration beside the values); hit rate 0.6% among 320,000; AID 2629; in the data active means inhibition mostly above about 10%, no sharp cut-off; inactive means mostly below about 6.7%;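 further: stock transfer was 7.5 nL into about 10 µL; 0% = median of vehicle wells and 100% = median of positive control wells; one replicate is shown; the record names a cut of 25% in any replicate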
Target sequence (Q9QR71 whole entry, looked up): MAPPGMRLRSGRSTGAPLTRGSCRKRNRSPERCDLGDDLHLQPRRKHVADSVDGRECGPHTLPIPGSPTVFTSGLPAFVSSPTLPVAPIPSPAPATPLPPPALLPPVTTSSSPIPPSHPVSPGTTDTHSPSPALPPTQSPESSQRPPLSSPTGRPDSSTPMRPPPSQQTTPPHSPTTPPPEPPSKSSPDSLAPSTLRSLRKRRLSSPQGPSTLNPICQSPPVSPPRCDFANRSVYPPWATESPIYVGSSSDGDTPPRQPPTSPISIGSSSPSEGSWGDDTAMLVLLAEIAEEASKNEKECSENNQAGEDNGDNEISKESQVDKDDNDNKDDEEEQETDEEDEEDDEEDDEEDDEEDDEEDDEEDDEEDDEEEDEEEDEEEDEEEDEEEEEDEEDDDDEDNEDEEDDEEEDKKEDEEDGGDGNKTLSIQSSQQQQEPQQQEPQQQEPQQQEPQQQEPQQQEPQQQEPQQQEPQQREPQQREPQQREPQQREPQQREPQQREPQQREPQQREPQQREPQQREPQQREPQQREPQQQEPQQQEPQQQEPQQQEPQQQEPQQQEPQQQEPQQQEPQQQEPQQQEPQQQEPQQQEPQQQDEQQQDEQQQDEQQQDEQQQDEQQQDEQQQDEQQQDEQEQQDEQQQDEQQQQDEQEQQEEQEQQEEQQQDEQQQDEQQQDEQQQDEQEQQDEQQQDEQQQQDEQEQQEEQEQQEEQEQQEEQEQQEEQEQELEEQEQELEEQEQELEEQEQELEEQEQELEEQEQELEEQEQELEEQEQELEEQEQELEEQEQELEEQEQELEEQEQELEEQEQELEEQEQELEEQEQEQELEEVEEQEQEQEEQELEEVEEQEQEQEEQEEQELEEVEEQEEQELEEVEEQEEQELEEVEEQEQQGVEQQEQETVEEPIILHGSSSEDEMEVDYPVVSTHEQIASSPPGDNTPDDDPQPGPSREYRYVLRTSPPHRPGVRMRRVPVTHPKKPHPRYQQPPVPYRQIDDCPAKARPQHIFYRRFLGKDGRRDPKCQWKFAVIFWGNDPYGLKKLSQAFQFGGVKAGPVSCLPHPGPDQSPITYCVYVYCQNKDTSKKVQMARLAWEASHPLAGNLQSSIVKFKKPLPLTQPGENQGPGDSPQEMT
An asterisk follows results filed as active; u = inconclusive; x = no result given. Not a hit list (roughly 4.3% active in at least one column).

SMILES | Beta apoptosis | T cruzi repl | Vif A3G | Calb FLC | MLL AF4-AF9 inh | Bfl-1 A1 inh | RanGTP-Impb inh | LANA-H2B inh
CC(C)(C)CC(=O)Nc1ccc(S(=O)(=O)N2CCCC2)cc1 | -3 | -6 | 0% | -14 | -1.1 | -0.4 | -1.2 | -0.5
COc1cccc(C(=O)Nc2ccccc2F)c1 | 3 | -22 | 0% | -3 | -1.2 | -4.2 | 3.8 | -6.2
COc1ccc(Cl)cc1CN1CCOCC1 | -3 | -7 | -10% | 3 | x | 0.4 | 0.1 | 1.5
O=C(COC(=O)c1cc(=O)[nH]c(=O)[nH]1)Nc1cccc(S(=O)(=O)N2CCCCC2)c1 | -4 | -7 | 18% | 10 | 1.2 | 0.0 | 3.6 | 11
O=C(NC1CC(=O)N(c2ccc3c(c2)OCCO3)C1)N1CCCCC1 (stereo not drawn) | x | -5 | 4% | -4 | -5.2 | 0.2 | 0.8 | 2.3
O=C(OCC#CCSc1nnc(-c2ccc(Br)cc2)o1)c1ccco1 | -5 | 2 | -2% | -37 | x | -0.3 | 3.6 | -8.5
CN(C)S(=O)(=O)c1ccc(C(=O)OCC2CC2(Cl)Cl)cc1 (stereo not drawn) | -2 | 4 | -8% | 14 | -1.6 | 0.1 | 8.5 | -2.2
O=C(CCNC(=O)C1CCN(S(=O)(=O)c2ccccc2)CC1)NCCc1ccc(Cl)cc1 | x | 2 | x | -1 | -0.3 | 2.0 | 0.8 | 1.6
CC(C)c1cccc(C(C)C)c1NC(=O)CN(C)C1CCS(=O)(=O)C1 (stereo not drawn) | -4 | x | x | x | -0.6 | -0.2 | x | 0.6
CCS(=O)(=O)Nc1c(C(=O)O)[nH]c2ccccc12 | 2 | -24 | 29% | 0 | x | 0.6 | -0.2 | -4.7
Oc1ccc(C(=S)N2CCCCCC2)cc1 | x | -2 | 0% | -4 | x | 0.9 | -3.0 | -2.6
CCOC(=O)c1csc(N/N=C2\CCCc3ccccc32)n1 | 5 | -9 | -8% | 1 | 11 | 0.7 | 6.1 | -3.2
Cc1ccc(S(=O)(=O)Cn2nnnc2C(c2ccc(F)cc2)N2CCCCC2)cc1 (stereo not drawn) | 6 | 29 | 32% | -5 | x | 0.2 | 1.0 | -4.4
O=C(NCC1(O)CCCCC1)C1CCC(=O)N(CCc2ccccc2)C1 (stereo not drawn) | -3 | -5 | -6% | 2 | -1.8 | 1.6 | 2.9 | 1.4
COCCNC(=O)/C(C#N)=C/c1cn(CC(=O)NCc2ccco2)c2ccccc12 | -7 | 3 | x | -1 | -1.3 | 0.7 | 27* | -2.9
Cc1ccc(CNCc2cccnc2)cc1 | -7 | -13 | -2% | -5 | x | 1.0 | 0.1 | -3.9
C=CCN(CC=C)CCOc1ccccc1F | -5 | -4 | 4% | -4 | 0.4 | -0.8 | 2.9 | 0.1
CCOC(=O)CN1C(=O)S/C(=C/c2ccc(OCc3ccc(C(=O)O)cc3)cc2)C1=O | 1 | 2 | -5% | -5 | 2.7 | -1.0 | 4.7 | -0.4
CCc1ccc2nc(NC(=O)c3ccc4c(=O)[nH]c(CN5CCOCC5)nc4c3)sc2c1 | 4 | -5 | -3% | 0 | x | -0.7 | 5.5 | 1.6
COc1ccc(-c2nc(CCNC(=O)c3ccco3)cs2)cc1OC | 7 | -1 | -2% | 0 | -4.1 | -0.1 | -16 | -1.2
COc1ccccc1/C=N/NC(=O)c1cccc(NC(=O)c2ccccc2C)c1 | -11 | -9 | -3% | -4 | 2.2 | 0.0 | 0.6 | 0.2
CCOc1ccc(CCNC(=O)c2c(C)nn(-c3ccccc3)c2Cl)cc1OCC | 0 | -1 | x | -5 | 0.0 | u | 3.7 | 4.5
Cc1c(Nc2ccc3nonc3c2[N+](=O)[O-])c(=O)n(-c2ccccc2)n1C | 6 | -12 | 3% | 2 | -0.9 | 0.0 | -1.2 | 0.2
CC(C(=O)NCCC1=CCCCC1)c1ccc([N+](=O)[O-])cc1 (stereo not drawn) | -1 | 6 | 5% | -16 | 1.7 | -0.5 | -2.6 | 1.3
CC(NC(=O)COC(=O)/C=C/c1ccc2c(c1)OCO2)c1ccccc1 (stereo not drawn) | 0 | x | -5% | x | 0.1 | -0.4 | x | 4.8
CN1C(C(=O)NCC2CC2)CC2Cn3c(nc4cc(Cl)c(Cl)cc43)C21 (stereo not drawn) | -1 | -5 | 5% | -1 | 2.4 | -0.1 | -2.9 | -1.2
Cc1nc(NC(=S)NC(=O)c2ccccc2)sc1C | 0 | -3 | x | 1 | -5.7 | -1.2 | -4.1 | 2.6
CCOC(=O)C1(CCCc2ccccc2)CCN(Cc2nccn2CC)CC1 | 13 | 32 | x | -7 | 14 | 0.7 | 2.1 | -2.2
O=C(C1CCN(S(=O)(=O)c2cc(Cl)ccc2Cl)CC1)N1CCOCC1 | 0 | -7 | x | 1 | 1.3 | 1.7 | 7.1 | -2.8
CCOc1ccccc1C(=O)NC1CC2CCCC(C1)N2Cc1ccccc1 (stereo not drawn) | 1 | 26 | 5% | -1 | x | -0.6 | 1.1 | 1.5
CCOC(=O)Cc1csc(NC(=O)CN2CCOCC2)n1 | 5 | -6 | 8% | -7 | -0.7 | 0.1 | -0.2 | 1.3
CC(C)c1ccc(N(CC(=O)NCc2ccco2)C(=O)CCC(=O)Nc2nccs2)cc1 | 0 | 10 | x | 17 | 0.0 | -0.2 | -0.8 | -0.1
COc1ccc(CCNC(=O)CSCc2c(F)cccc2Cl)cc1OC | 1 | -6 | x | 5 | -0.5 | -0.7 | 1.4 | 1.5
CCOC(=O)C(C)Oc1cccc2c(=O)n(CC(=O)N3CCN(C(=O)OCC)CC3)ccc12 (stereo not drawn) | -2 | -2 | 6% | -1 | -1.3 | 0.7 | -2.2 | 1.2
CCN(CC)CC#CCOC(c1ccccc1)c1ccccc1 | -2 | 7 | 20% | -13 | 0.0 | -0.5 | 2.0 | 7.4
Cc1cc(NC(=O)CCC(=O)N(CC(=O)NC2CCCC2)Cc2cccs2)no1 | 4 | -3 | -3% | -1 | x | -0.5 | 4.9 | -3.2
COC(=O)CC(c1ccc(F)cc1)n1c(C)ccc1C (stereo not drawn) | -12 | -9 | -3% | -4 | -2.2 | 0.2 | -1.0 | 3.5
CCC1(C)Cc2ccccc2-c2nc(NCCCO)[nH]c(=O)c21 (stereo not drawn) | -2 | -6 | -8% | -8 | 4.9 | 1.3 | 1.4 | -2.2
Cc1nc(-c2cccc(NC(=O)c3cc4cc(Br)ccc4oc3=O)c2)cs1 | -2 | -10 | -5% | -1 | x | 0.1 | 1.5 | 2.5
CCCNC(=O)C(Cc1ccc(C(F)(F)F)cc1)NC(=O)c1ccc(C#N)cc1 (stereo not drawn) | -7 | x | x | x | 3.3 | -0.8 | x | 2.5
CC(Sc1ccc(S(=O)(=O)N2CCCC2)cn1)C(N)=O (stereo not drawn) | -6 | x | x | x | 0.3 | -0.5 | x | -0.9
Clc1ccc(N/N=C/c2cccnc2)cc1 | -3 | 46 | 13% | 1 | x | -0.1 | 0.0 | 1.7
O=C(O)CCCCCNS(=O)(=O)/C=C/c1ccccc1 | 0 | -2 | 1% | -6 | 0.3 | 1.0 | -6.2 | -1.1
O=C(N/C=C/c1ccco1)Nc1cccc(Cl)c1 | 0 | -14 | u | -4 | -1.2 | 1.5 | -3.0 | -0.6
C[C@H](N)C(=O)N1CCC(C(=O)N[C@@H](Cc2ccccc2)C(=O)Nc2ccc(F)cc2)CC1 | x | 2 | x | 6 | -2.1 | 0.4 | 0.7 | -1.9
CCC(C)[C@H](NC(=O)NCc1ccco1)C(=O)OC (stereo partly drawn) | x | x | 30% | 10 | -4.7 | 1.2 | 1.5 | 3.4
CCOC(=O)c1c(NC(=O)CC2Nc3ccccc3NC2=O)sc(C)c1C (stereo not drawn) | -3 | -19 | x | -6 | x | 1.5 | 0.7 | 17
O=C(O)c1ccccc1CSC1=NCCS1 | -1 | -12 | 18% | -2 | 0.0 | -0.3 | -0.5 | -5.7
O=C(COC(=O)c1n[nH]c(=O)c2ccccc12)Nc1ccccc1F | 6 | x | 0% | x | 1.0 | 2.3 | x | 1.9
CCc1cc2ccccc2nc1Cl | -3 | -5 | -6% | 13 | 1.6 | 0.5 | 4.8 | -3.8
Further compounds follow.
SMILES | Beta apoptosis | T cruzi repl | Vif A3G | Calb FLC | MLL AF4-AF9 inh | Bfl-1 A1 inh | RanGTP-Impb inh | LANA-H2B inh
CNC(=O)N(O)C1N(/N=C/c2cccs2)C(=S)SC1(C)C (stereo not drawn) | 6 | -5 | -10% | 12 | -1.1 | 0.4 | 1.0 | 5.0
O=C(Nc1ccc2c(c1)OCO2)C1CCN(Cc2cc3c(cc2O)OCO3)CC1 | 11 | 18 | x | -6 | 7.6 | -0.1 | -4.1 | -2.8
O=C(O)C1C2C=CC(C2)C1C(=O)Nc1nccs1 (stereo not drawn) | 2 | 3 | 1% | -10 | x | -1.0 | 0.2 | 1.0
Cc1cc(C)nc(SCCC(=O)N2CCOCC2)n1 | -9 | -21 | 11% | 12 | x | 0.2 | -0.8 | -2.0
CCCCCOc1ccc(N2C(=O)CC(N(O)c3ccccc3)C2=O)cc1 (stereo not drawn) | -11 | -1 | 5% | 4 | x | 2.0 | -1.3 | 3.6
CC(NC(=O)c1ccccc1)c1nc2ccccc2n1Cc1ccccc1F (stereo not drawn) | -3 | 9 | -8% | -2 | x | 0.4 | 0.6 | 4.3
CC12CN3CC(C)(CN(C1)C3c1ccc(Br)cc1O)C2 (stereo not drawn) | -2 | -17 | 6% | 8 | -0.6 | 0.0 | -0.7 | -3.0
O=P(COCCOCP(=O)(c1ccccc1)c1ccccc1)(c1ccccc1)c1ccccc1 | 3 | -2 | 4% | -2 | x | -0.1 | 7.4 | -0.8
COC(=O)c1sccc1NC(=O)Nc1cccc(OC)c1 | -1 | -4 | -4% | 0 | -3.0 | 0.0 | 3.8 | 5.3
COc1cccc(CN2CCC(Oc3ccc(C(=O)NCc4ccccn4)cc3)CC2)c1 | -6 | -2 | x | 0 | -3.8 | -0.8 | 6.3 | 2.0
CCOC(=O)c1cnc(Nc2nc3ccccc3o2)nc1CSc1nnc(C)s1 | 6 | 42 | x | 0 | x | -0.5 | -1.5 | 7.6
Cc1cc(NC(=O)CN2C(=O)/C(=C/c3cccc(Br)c3)SC2=S)no1 | -1 | 8 | 4% | 0 | 0.7 | 2.3 | -3.3 | -5.2
CC(C)=CC(=O)OCC(=O)Nc1cccc([N+](=O)[O-])c1 | -8 | -21 | x | -15 | 0.2 | 1.7 | u | 9.3
COc1ccc(N(CC(=O)NCc2ccccc2OC)S(=O)(=O)c2c(C)nn(C)c2C)cc1 | 4 | -4 | -4% | 5 | 4.4 | x | 1.1 | -3.5
Cc1ccc(C(=O)N2CCN(c3ccc([N+](=O)[O-])c(NCc4cccnc4)c3)CC2)cc1 | 13 | 21 | -5% | -1 | 10 | -0.5 | 1.1 | -2.8
